StopGo reporter: lowers the luciferase signal of an FMDV 2A StopGo reporter | human cells with a luciferase reporter of 2A StopGo recoding; control for the full effect not named in the record | Potency, µM (top dose mostly 57.9 µM), without a hit: at the highest dose signal change, negative = less light | 410,000 compounds, 1.2% hits | AID 1159524; active = well fitted falling curve with a large enough effect; inconclusive = small, poorly fitted or top-dose-only effect; inactive = no such curve, though single readings can be large or run the other way; tested in HEK293T cells; further: nearly all actives have a fitted effect of over 45% in size; luciferase light after 4 h
RE007 growth inh: less growth of the S. pombe RE007 Vpr strain. S. pombe RE007 Vpr strain, BacTiter-Glo ATP luminescence, 24 h; control for the full effect not named in the record. Potency, µM (doses to about 92.2 µM), for the others: at the top dose activity change, negative = less growth. 360,000 compounds, 0.21% hits; active = well fitted falling curve with a large enough effect; inconclusive = small, poorly fitted or top-dose-only effect; inactive = no such curve, though single readings can be large or run the other way;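 further: nearly all actives have a fitted effect of over 50% in size; the assay follows cell death caused by Vpr and the record does not say whether a fall means rescue or toxicity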
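Fission yeast RE007 carrying one integrated HIV-1 vpr copy, seeded at OD 0.01 in PMG+AL medium with 23 nL pinned compound. Grown 24 h at 30 degrees; viability read by BacTiter-Glo luminescence after 5 min.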
* marks the source's active call; other numbers are inactive results; ? = inconclusive; [ ] = another dose, or the depositor's remark. On the % scale 0 is the no-effect control and ±100 the full control effect; potency means the concentration at half of the fitted maximal effect. A portion of the library; rates above refer to the full screens.

SMILES	StopGo reporter	RE007 growth inh
OC[C@@H]1CN(Cc2ccc3c(c2)OCO3)C[C@H](n2cnc3c(NC4CC4)ncnc32)O1	-12%	0%
COC(=O)C1=C(c2ccccc2)C[C@@H]2CC[C@H]1N2C(=O)NCc1ccc(C(F)(F)F)cc1	-21%	-4%
CSc1ncccc1C(=O)N1CCCC(Nc2ccc(F)c(F)c2)C1 (configuration not stated)	0%	0%
Cc1cc(F)ccc1C(O)c1ncc(-c2ccccc2F)[nH]1 (configuration not stated)	108%[activator]	?
COc1ccc(-c2csc(NC(=O)CN3C(=O)C4CC=CCC4C3=O)n2)cc1OC (configuration not stated)	?	8%
C[C@H](CO)N1C[C@H](C)[C@@H](CN(C)S(=O)(=O)c2cccc(C#N)c2)OCc2cnnn2CCCC1=O	-3%	15%
c1cncc(CN2CCN(c3cc(-c4cnc5ccccc5c4)nc4ccnn34)CC2)c1	2%	6%
Cc1cc(C2(c3ccc(O)c(C)c3)C(=O)N(C)c3ccc(Br)cc32)ccc1O	-10%	21%
Cc1ccc(S(=O)(=O)N2CC3C(=O)C[C@@H](c4ccccc4)N(S(=O)(=O)c4ccc(CCCOCCOCCNC(=O)OC(C)(C)C)cc4)C3CC2c2ccccc2)cc1 (some centres not stated)	-16%	14%
CCOC(=O)C1CC(c2ccccc2)=NN1c1ccccc1 (configuration not stated)	-17%	-29%
O=C(NC1CCCC1)C1C(c2ccc(C(F)(F)F)cc2)=Nc2ccccc2N1C(=O)c1cccc(C(F)(F)F)c1 (configuration not stated)	16%	6%
COc1ccc(S(=O)(=O)N2CCC[C@@H]2C(=O)N2CCC[C@H]2C(=O)NCc2ccncc2)cc1C	-19%	0%
Cc1ccc(CNC(=O)[C@H]2O[C@@H](n3ccc(N)nc3=O)[C@H](O)[C@@H]2O)o1	-18%	38%
O=C(OCC1CCNCC1)c1ccc(F)cc1	2%	-10%
CCCNC(=O)N1[C@H]2CC[C@@H]1C(C(=O)OC)=C(c1cc3ccccc3o1)C2	-30%	-3%
CCCC(=O)Nc1cccc(NC(=O)Cc2ccc(Cl)cc2)c1	-15%	-3%
COc1cccc(-c2cnc(C(O)c3cc(C)c(OC)c(C)c3)[nH]2)c1 (configuration not stated)	-10%	?
CC1CCCN(S(=O)(=O)c2ccc3[nH]c(=O)cc(C(=O)NCCCN4CCCCCC4)c3c2)C1 (configuration not stated)	?	-4%
O=C(NCC[C@H]1CC[C@@H](NC(=O)C2CCOCC2)[C@@H](CO)O1)Nc1ccc(Cl)cc1	-13%	-12%
CCOC(=O)c1ccccc1NC(=O)c1c(O)[nH]c(=S)[nH]c1=O	-19%	1%
COC(=O)C(C(=O)OC)C1CCCCC1NS(=O)(=O)c1ccc(C)cc1 (configuration not stated)	-1%	13%
CC1=C(C(=O)N2CCOCC2)CC(CC(=O)NCCN2CCOCC2)C(=O)N1Cc1ccccc1 (configuration not stated)	-6%	9%
N#Cc1ccsc1NC(=O)CSc1nnc(NC2CC2)s1	-5%	-6%
COc1ccc(NC(=O)c2cc(C3CCCCN3S(=O)(=O)c3cn(C)cn3)on2)c(C)c1 (configuration not stated)	-11%	1%
C[C@@H]1CN([C@H](C)CO)C(=O)CCCn2cc(nn2)CO[C@H]1CN(C)C(=O)Nc1cccc(Oc2ccccn2)c1	-9%	6%
CC(S(=O)(=O)c1ccccc1)S(=O)(=O)c1ccccc1	11%	-15%
CCOC(=O)C1(C)CCN1C(=O)c1ccccc1Br (configuration not stated)	-25%	-6%
O=C(NCc1ccco1)c1ccc(CS(=O)c2ccccc2Cl)o1 (configuration not stated)	-21%	4%
CC(C)NC(=O)C1(C)CSCC(=O)N1CC(F)(F)F (configuration not stated)	-8%	14%
Cn1c(NCCN(CCO)CCCc2ccc([N+](=O)[O-])cc2)cc(=O)n(C)c1=O	-23%	3%[18.4 µM]
COc1cccc(SCc2noc(C(=O)NCCCN3CCOCC3)c2C(=O)NCCCN2CCOCC2)c1	-16%	-12%
O=C(NCc1ccccc1)c1cc(C2CCCN(C(=O)CCCc3ccccc3)C2)on1 (configuration not stated)	-9%	-10%[18.4 µM]
Cc1ccc(Cc2c(-c3cccc(Br)c3)nc3cc(C)c(Br)c(C)n23)cc1	-4%	7%
CCOC(=O)[C@]12CCCC=C1N(CCC1=CCCCC1)C(=O)[C@H](CC(=O)NCc1ccccc1)C2	6%	2%
CC1(Cc2ccccc2OC(F)(F)F)C(=O)Nc2cc(-c3ccccc3Cl)ccc21 (configuration not stated)	-24%	11%
Cc1cccc(C)c1N1C(=O)c2ccccc2NC(=O)C1C(=O)NCc1ccco1 (configuration not stated)	-20%	-18%
O=C1NC[C@@H](CCCCN2CCN(CCc3ccccc3)C(=O)C2=O)N(Cc2ccccc2)C1=O	-1%	-7%
CC(=O)Nc1ccc2c(=O)n(-c3ccccc3)sc2c1	14%	12%
OC(c1ccccc1)c1nc(-c2cccc3cccnc23)cs1 (configuration not stated)	32%[activator]	-16%[18.4 µM]
CCc1nc2c(OCCOc3ccc(F)cc3)cccn2c1N(C)C(=O)c1cccs1	?	-25%
COC(=O)[C@@]12C[C@@H](CC(=O)NCCCN3CCCC3=O)C(=O)N(Cc3ccco3)C1=CCC(C)(C)C2	-11%	-3%
Cc1ccnc(NCc2cc(Cl)ccc2O)c1	44%[activator]	-13%
CCOC1=C2[C@H](c3cccs3)N(S(=O)(=O)c3ccc(C)cc3)C[C@H]2n2c(=O)n(-c3ccccc3)c(=O)n2C1	39%[activator]	-2%
Nc1ccn([C@@H]2O[C@H](CNCc3cc(Br)ccc3OCc3ccccc3)[C@@H](O)[C@H]2O)c(=O)n1	4%	-26%
O=C(NCc1ccncc1)[C@@H]1CCCN1C(=O)[C@@H]1CCCN1C(=O)c1cccs1	-15%	13%
CCCNC(=O)C1(C)CCCN(C(=O)COc2ccc(C(C)(C)C)cc2)C1 (configuration not stated)	-17%	14%
CC(C)C[C@@H]1COc2cc(N(C)CCO)ccc2S(=O)(=O)N1	-8%	-1%
COc1ccccc1Cc1c(-c2ccc(OC)c(OC)c2)nc2c3ccccc3ccn12	-16%	-16%
Cc1c(NS(=O)(=O)c2cccc(C(=O)NC(C)c3ccccc3)c2)c(=O)n(-c2ccccc2)n1C (configuration not stated)	-12%	-17%
Cc1ccnc(NCc2cc(Cl)cc(Cl)c2O)c1	-18%	-27%

The results go on.
SMILES	StopGo reporter	RE007 growth inh
CCOC(=O)C1(C)CCCCN1C(=O)c1cccc(Cl)c1 (configuration not stated)	-22%	3%[18.4 µM]
CC(C)=CCc1c(O)cc2c(=O)c3ccc(O)cc3oc2c1O	21%	-23%
Cc1ccccc1N(CC(=O)N1CCN(Cc2ccccc2)CC1)S(C)(=O)=O	-12%	0%
O=C1C=C(c2ccc(CO)cc2)C[C@@H](c2ccc(F)cc2)C1	-10%	-1%
O=C(Nc1cc(Cl)ccc1-n1cncn1)c1ccco1	-7%	-17%
Cc1cccc(NC(=O)COC(=O)CN2C(=O)c3ccccc3C2=O)c1C	-5%	8%
COc1ccc(CCNC(=O)c2cc(S(=O)(=O)N3CCc4ccccc43)ccc2F)cc1OC	-17%	-18%
COc1ccc(CCNC(=O)Nc2ccc3nc([C@@H]4O[C@H](CO)[C@@H](O)[C@H](O)[C@H]4O)[nH]c3c2)cc1Br	-10%	-18%[18.4 µM]
O=C(NCc1ccc(F)cc1)c1cc(C2CCCCN2C(=O)c2ccc3c(c2)CCO3)on1 (configuration not stated)	-9%	8%
CC(C)NC(=O)N1Cc2cc(C(=O)NC3CCCC3)nc(-c3cccc(-c4cccnc4)c3)c2[C@@H]1CCO	-22%	-17%
Cc1ccc2nc(C(C)(C)C)c(Cc3ccsc3)n2c1	12%	?
CCCCN(CCCC)Cc1cc(=O)oc2ccccc12	-8%	7%
OC[C@@H]1CN(CCN2CCOCC2)C[C@H](n2cnc3c(N4CCOCC4)ncnc32)O1	-19%	4%[18.4 µM]
COc1ccc(-c2[nH][nH]c(=O)c2NC(=O)c2ccccn2)cc1	-1%	12%
CCc1ccc(CN2CCC(Oc3cc(C(=O)NC4CC4)ccc3OC)CC2)cc1	-13%	-7%
CN(C)c1ccc(-c2ccnc3c2CC(C)(C(=O)NCc2ccccc2)O3)cc1 (configuration not stated)	-4%	-10%
CCOC(=O)[C@H]1[C@H]2COc3ccc(Cl)cc3[C@@H]2N2C(=O)[C@H](C)NC(=O)[C@@]12C	2%	-1%
CCOC(=O)C1=CCCN(S(=O)(=O)c2ccc(C)cc2)C1	-9%	9%
COc1ccc([C@H]2C[C@H](n3cc(C4CC4)nn3)[C@@H](O)CN2CC2CCCCC2)cc1	?	9%
Cc1cn([C@H]2C[C@H](O)[C@@H](/C=C/C(=O)NCc3ccco3)O2)c(=O)[nH]c1=O	-20%	4%

Some of the entries so far, with values under each structure.
Second line of a record – StopGo reporter | RE007 growth inh
- OC[C@@H]1CN(CCN2CCOCC2)C[C@H](n2cnc3c(N4CCOCC4)ncnc32)O1
 : -19% | 4%[18.4 µM]
- COc1ccc(-c2[nH][nH]c(=O)c2NC(=O)c2ccccn2)cc1
 : -1% | 12%
- CCc1ccc(CN2CCC(Oc3cc(C(=O)NC4CC4)ccc3OC)CC2)cc1
 : -13% | -7%
- CN(C)c1ccc(-c2ccnc3c2CC(C)(C(=O)NCc2ccccc2)O3)cc1 (configuration not stated)
 : -4% | -10%

Other records:
SMILES	StopGo reporter	RE007 growth inh
COc1ccc(NC(=O)C(c2ccncc2)n2c(=O)c(-c3ccco3)nc3ccccc32)cc1 (configuration not stated)	3%	-18%
C[C@H]1CN([C@@H](C)CO)C(=O)CCCn2cc(nn2)CO[C@@H]1CN(C)C(=O)Oc1ccccc1	-1%	1%
O=C(Nc1ccc(N2CCOCC2)cc1)c1csc([C@@H]2O[C@H](CO)[C@H](O)[C@H](O)[C@H]2O)n1	-8%	1%[18.4 µM]
C[C@H](CO)N1C[C@H](C)[C@@H](CN(C)Cc2ccc(O)cc2)OCc2cnnn2CCCC1=O	-4%	-11%
CCOC(=O)[C@]12Cc3cc4ccccc4cc3[C@H]1N(Cc1ccccc1)C(=O)c1ccccc12	?	-1%
Oc1cccc(-c2sc3ccccc3c2-c2ccc(OCCN3CCCCC3)cc2)c1	-24%	-17%
CCCCn1nnnc1C(c1cc2ccccc2o1)N1CCN(C(=O)OC(C)(C)C)CC1 (configuration not stated)	-8%	38%
COc1ccc(-c2cc(C(=O)NCc3ccc(C(F)(F)F)cc3)[nH]n2)c(C)c1	2%	6%
Cc1cc2nc(-c3ccccc3)c(Cc3cccc(F)c3)n2c(C)c1Br	6%	-28%
CC1(C(=O)NS(=O)(=O)c2ccc(C#N)cc2)CCN1C(=O)C1CCCCC1 (configuration not stated)	-7%	3%
CC(=O)N1CCCC(c2cc(C(=O)Nc3ccccc3)no2)C1 (configuration not stated)	35µM*	-18%[18.4 µM]
CC(=O)c1c(C)[nH]c(C(=O)OCC(=O)c2ccc(Br)cc2)c1C	?	-14%
COc1cc(OC)cc(-c2c(Sc3ccccc3)c3cc(-c4ccc(OC)c(F)c4)ccc3n2C)c1	-29%	4%
CCCCNC(=O)C1(C)CCCCN1C(=O)c1sccc1C (configuration not stated)	-10%	-8%[18.4 µM]
COc1ccccc1N1CCN(C(=O)c2ccc3ncsc3c2)CC1	-8%	-6%
C[C@@H](c1ccccc1)N1C[C@@H](COCc2ccccc2)Oc2cc(N3CCC[C@H]3CO)ccc2S1(=O)=O	26%	11%
Cc1nc(-c2cccc(NC(=O)c3ccc(Cl)c(S(=O)(=O)N4CCCC4)c3)c2)cs1	?	-19%
CN1CCn2cnc(C(=O)NCc3ccc(CNC(=O)OC(C)(C)C)cc3)c2C1=O	-23%	3%
CC(C)NC(=O)C1(C)CSCC(=O)N1Cc1cccs1 (configuration not stated)	-1%	-8%
COc1cccc(NC(=O)C2(C)CCN2C(=O)CCc2ccc(Cl)cc2Cl)c1 (configuration not stated)	-13%	1%
Cc1cccnc1C1=NOC(Cc2ccccc2)C(=O)N1Cc1ccc(F)cc1 (configuration not stated)	-12%	6%[18.4 µM]
CCCCNC(=O)C[C@@H]1C[C@@]2(C(=O)OCC)CCC=C2N(Cc2cccc3ccccc23)C1=O	-15%	4%
C[C@H](CO)N1C[C@H](C)[C@@H](CN(C)C(=O)Nc2cccc(Oc3ccccn3)c2)OCc2cnnn2CCCC1=O	0%	?
O=C(C[C@H]1C(=O)N(Cc2ccccc2)C[C@@H]1c1ccc(Br)cc1)Nc1ccc(Br)cc1	51%[activator]	5%
CCN(CC)C(=O)C1=C(C)N(Cc2ccc(OC)cc2)C(=O)C(CC(=O)NC2CCCC2)C1 (configuration not stated)	27%	4%
CC(C)c1ccc(NC(=O)C2Cc3c(-c4ccc5c(c4)OCO5)ccnc3O2)cc1 (configuration not stated)	-1%	-14%
O=C1CSC(=S)N1N=Cc1c(F)cccc1Cl	-15%	-6%
CCCCCCC(=O)Nc1ccc(S(=O)(=O)Nc2onc(C)c2C)cc1	-6%	12%
CC(=O)C[C@H]1c2ccccc2S(=O)(=O)N1c1ccccc1	34%[activator]	7%
O=C(NCC(=O)N1CCN(C(c2ccccc2)c2ccccc2)CC1)c1ccccc1Br	-11%	5%

Part of the list above in order of formula weight, low to high:
SMILES	StopGo reporter	RE007 growth inh
Cc1cccnc1C1=NOC(Cc2ccccc2)C(=O)N1Cc1ccc(F)cc1 (configuration not stated)	-12%	6%[18.4 µM]
CCN(CC)C(=O)C1=C(C)N(Cc2ccc(OC)cc2)C(=O)C(CC(=O)NC2CCCC2)C1 (configuration not stated)	27%	4%
O=C(C[C@H]1C(=O)N(Cc2ccccc2)C[C@@H]1c1ccc(Br)cc1)Nc1ccc(Br)cc1	51%[activator]	5%
